Screening results (PubChem)
Mtb hypoxia inh = reduces hypoxia-regulated biosensor signal in M. tuberculosis. fluorescence inhibition, % (test concentration not listed). AID 1159583. 0.1% of 300,000 active. M. tuberculosis hypoxia-regulated fluorescent reporter, fluorescence;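 active = 35 to 45% if threefold the growth effect, above 45% if 1.5-fold the growth effect; inactive = the rest, general growth blockers included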;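 also: wells of about 50 µL received 100 nL stock; 0% = vehicle wells and 100% = reference inhibitor wells; whole bacteria with a GFP reporter of the hypoxia response; strong numbers were not always called active; many hits fall short of the cut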
PrP 5UTR inh = inhibition of PrP 5' UTR reporter expression. 0.35% of 340,000 active. cell-based PrP 5' UTR mRNA reporter, plate reader. AID 488862. inhibition, % (test concentration not listed);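 active = every replicate at 50% or more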;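 also: 0 = median of the neutral control wells; tested in H4 reporter cells; numbers are from one replicate; inactives centre near -14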
ugtP null kill = kills S. aureus RN4220 lacking UgtP | AID 1259309 | 0.54% of 330,000 active | growth inhibition, % (test concentration not listed) | S. aureus RN4220 ugtP deletion, OD600 growth, 16 h; some inactives read as strong as hits;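 active = z-score under -3 and OD600 up to 0.15 on both plates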;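 also: plate controls were untreated wells for no effect and antibiotic for full effect; wells of about 80 µL received 100 nL stock; the first replicate is given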
RN4220 kill = kills Staphylococcus aureus RN4220. S. aureus RN4220 growth, OD600, 16 h. inhibition, % (no concentration beside the values). 0.33% of 330,000 active;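 active = z-score of -3 or lower and OD600 up to 0.18 on both plates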;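 also: plate controls were untreated cells for no effect and reference antibiotic for full effect; stock transfer was 100 nL into about 80 µL; one replicate is shown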
Bead autofluor = counter-screen for toxin protease inhibitors: compound fluorescence. compound autofluorescence counterscreen, microsphere flow cytometry; stronger effect = higher value. fluorescence intensity (test concentration not listed). 3.1% of 360,000 active. AID 624483;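 active = at least 3 SD above the mean of all compounds, about 16000 in these data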;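 also: 100 nL of 1 mM stock went into each well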
BJeLR viability = BJeLR cell viability loss; inhibition, % (no concentration beside the values); BJeLR (HRASV12) viability, CellTiter-Glo ATP luminescence, 48 h; reference of the scale not given here; 0.17% of 300,000 active;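 active = replicate mean above 50%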;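 also: 50 nL library stock added to about 25 µL; numbers are from one replicate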
Mtb hypoxia inh growth = further read-out of Mtb hypoxia inh, marked with its call; growth inhibition, %; measured here: M. tuberculosis growth (absorbance);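 0% = vehicle and 100% = reference antibiotic; read after six days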
The depositor's hits bear a star; . = not tested or not shown.

The first 11 compounds (preview)
compound	Mtb hypoxia inh	Mtb hypoxia inh growth	PrP 5UTR inh	ugtP null kill	RN4220 kill	Bead autofluor	BJeLR viability
O=c1c2ccccc2[nH]c(=S)n1CCCN1CCN(C2CCCCC2)CC1	.	.	-8	-3	2.0	2189	.
CCCc1cc(=O)[nH]c(SCC(=O)Nc2cccc3ccccc23)n1	3	6	10	7	5.2	5821	-2
CN1C(=O)N(C)C(=O)C2(Cc3cc(NC(=O)c4ccccc4)ccc3N3CCCC32)C1=O (stereo not drawn)	4	4	-19	-3	3.2	6315	8
COc1cccc(NC(=O)Cn2c3ccc(F)cc3c3nc4n(c(=O)c32)CCCS4)c1	8	10	-28	9	5.6	5158	2
NC(=O)C1CCN(C(=O)CCC(=O)N2CCOc3ccc(Cl)cc32)CC1	3	7	40	-5	-5.2	6107	-1
CC(C)c1ccc(CNc2ccc3c(c2)ncn3C)cc1	2	3	-37	6	3.2	3798	5
CCn1c(=O)c2ccccc2n(CC(=O)NC2CCCCC2)c1=O	10	0	-4	3	2.6	4549	-2
COc1cc(C(CC(=O)N2CCCC2)c2c(OC)cc(OC)c3c(-c4ccccc4)cc(=O)oc23)cc(OC)c1OC (stereo not drawn)	-5	5	-13	11	-1.8	3623	5
CCCc1ccc2oc(C(=O)N(C)CCn3ccnc3C)c(C)c2c1	7	9	1	9	3.4	4003	1
CCOC(=O)c1c(C)[nH]c(C)c1S(=O)(=O)N(C)CC(=O)NCc1ccc(C)cc1	13	7	-28	-3	4.3	6260	2
CCOC(=O)C1C(c2cccc([N+](=O)[O-])c2)C2C(=O)NN=C2CC1(C)O (stereo not drawn)	3	10	-10	-2	3.4	2427	-7

This part in full, from the start:
compound	Mtb hypoxia inh	Mtb hypoxia inh growth	PrP 5UTR inh	ugtP null kill	RN4220 kill	Bead autofluor	BJeLR viability
O=c1c2ccccc2[nH]c(=S)n1CCCN1CCN(C2CCCCC2)CC1	.	.	-8	-3	2.0	2189	.
CCCc1cc(=O)[nH]c(SCC(=O)Nc2cccc3ccccc23)n1	3	6	10	7	5.2	5821	-2
CN1C(=O)N(C)C(=O)C2(Cc3cc(NC(=O)c4ccccc4)ccc3N3CCCC32)C1=O (stereo not drawn)	4	4	-19	-3	3.2	6315	8
COc1cccc(NC(=O)Cn2c3ccc(F)cc3c3nc4n(c(=O)c32)CCCS4)c1	8	10	-28	9	5.6	5158	2
NC(=O)C1CCN(C(=O)CCC(=O)N2CCOc3ccc(Cl)cc32)CC1	3	7	40	-5	-5.2	6107	-1
CC(C)c1ccc(CNc2ccc3c(c2)ncn3C)cc1	2	3	-37	6	3.2	3798	5
CCn1c(=O)c2ccccc2n(CC(=O)NC2CCCCC2)c1=O	10	0	-4	3	2.6	4549	-2
COc1cc(C(CC(=O)N2CCCC2)c2c(OC)cc(OC)c3c(-c4ccccc4)cc(=O)oc23)cc(OC)c1OC (stereo not drawn)	-5	5	-13	11	-1.8	3623	5
CCCc1ccc2oc(C(=O)N(C)CCn3ccnc3C)c(C)c2c1	7	9	1	9	3.4	4003	1
CCOC(=O)c1c(C)[nH]c(C)c1S(=O)(=O)N(C)CC(=O)NCc1ccc(C)cc1	13	7	-28	-3	4.3	6260	2

The list continues.
compound	Mtb hypoxia inh	Mtb hypoxia inh growth	PrP 5UTR inh	ugtP null kill	RN4220 kill	Bead autofluor	BJeLR viability
CCOC(=O)C1C(c2cccc([N+](=O)[O-])c2)C2C(=O)NN=C2CC1(C)O (stereo not drawn)	3	10	-10	-2	3.4	2427	-7
O=C(Nc1ccc(CN2CCOCC2)cc1)c1ccc(Cl)cc1	-5	-1	-36	1	4.5	3466	7
O=C(COc1ccccc1)NNC(=O)c1cccs1	3	3	-26	-4	1.8	2690	-3
CN(C(=O)CSc1nnc(-c2cccs2)o1)C1CCS(=O)(=O)C1 (stereo not drawn)	7	8	-22	-2	5.3	2021	-1
COc1ccc(C(=O)NNC(=S)NC(=O)c2ccco2)cc1	-11	7	3	-6	34	9490	-2
CC(C)(C)NC(=S)N1CCC(C(=O)c2ccc(Cl)cc2)CC1	13	7	56*	7	4.4	3109	-4
Cc1ccc(C(=O)Nc2ccsc2C(=O)O)cc1	.	.	-34	.	.	4213	-2
CS(=O)(=O)N(CC(=O)NC1CC1)c1cccc(F)c1	.	.	-5	-4	-1.5	4318	-8
CC(CC(=O)Nc1ccc(Cl)cc1Cl)=NNC(=O)C(=O)N1CCCC1	11	6	.	8	2.4	.	.
COc1cc(CCC(C)=O)ccc1OC(=O)c1c(F)cccc1Cl	-2	6	-81	0	8.0	4196	3

Additional results
compound	Mtb hypoxia inh	Mtb hypoxia inh growth	PrP 5UTR inh	ugtP null kill	RN4220 kill	Bead autofluor	BJeLR viability
Cc1ccc(C2(c3ccc(C)cc3)CC2C(=O)NC(C)C)cc1 (stereo not drawn)	-6	8	.	7	-0.9	3797	3
CCc1c2ccccc2nn1-c1ccccc1C(=O)C(C)=O	2	0	-31	3	1.3	4089	-1
CCCOc1ccc(C=NNc2cccc([N+](=O)[O-])c2)c(O)c1	6	-2	.	-12	-17	.	.
Cc1ccc(-c2c(C)n([O-])c3c([n+]2=O)CCCC3)o1	.	.	-8	-4	0.9	4783	-4
CCOC(=O)c1ccc(NC(=O)CN2CCN(C(=O)C3CCCO3)CC2)cc1 (stereo not drawn)	-6	0	-39	-1	-2.8	6126	-7
CCOC(=O)c1ccc(NC(=O)Cn2nnc(-c3ccccc3)n2)cc1	.	.	-5	-3	-10	3822	3
Cc1ccc(NC(=O)CN(C)C(=O)Cc2ccccc2F)cc1	-2	0	-8	10	4.7	2921	-3
Cc1cc(NC(=O)c2cc(C(C)C)on2)nn1Cc1ccc(Cl)cc1	2	5	-18	3	-2.2	5161	10
Cc1c(C(=O)NN2CCOCC2)cccc1[N+](=O)[O-]	15	4	-11	2	2.5	6315	2
O=C(CN1C(=O)/C(=C/c2ccccc2)SC1=S)NC1C=CS(=O)(=O)C1 (stereo not drawn)	3	6	-7	2	4.3	5045	0

Other records
compound	Mtb hypoxia inh	Mtb hypoxia inh growth	PrP 5UTR inh	ugtP null kill	RN4220 kill	Bead autofluor	BJeLR viability
O=S(=O)(c1ccc(OCC(O)CN2CCN(c3ccccc3)CC2)cc1)N1CCOCC1 (stereo not drawn)	3	-6	-4	3	-1.8	4670	4
CCOC(=O)c1cn[nH]c1NC(=S)Nc1ccc(Cl)cc1	-7	1	.	-20	-3.1	.	-14
Cc1c(Cl)cccc1NC(=O)CSc1nncn1-c1ccccn1	8	4	-1	9	3.3	3408	-17
CCCc1n[nH]c(=O)[nH]1	.	.	-5	14	5.5	4260	3
O=C(Cn1cccc1C(=O)c1ccccc1)NCCCN1CCc2ccccc2C1	-6	-5	-10	7	5.8	4673	-15
O=C(Nc1ccccc1N1CCN(c2ccccc2)CC1)C12CC3CC(CC(C3)C1)C2	1	-4	-4	-18	-2.8	3804	-3
CSCCC1NC2(C(=O)Nc3c(Cl)cccc32)[C@@H]2C(=O)N(C3CCCC3)C(=O)[C@H]12 (stereo partly drawn)	7	6	-9	0	2.9	21812*	0
O=C(c1ccccc1)N1CCC2(CC1)OCCO2	-14	-9	-10	-5	-0.1	5478	-1
COc1ccc(-c2cc3ccccc3nc2N)cc1OC	12	-10	4	5	1.3	2885	0
O=C(c1ccccc1)C(Sc1ncn[nH]1)c1ccccc1 (stereo not drawn)	-2	2	-21	6	0.7	2795	0

(listing goes on)
compound	Mtb hypoxia inh	Mtb hypoxia inh growth	PrP 5UTR inh	ugtP null kill	RN4220 kill	Bead autofluor	BJeLR viability
O=C1CC(c2ccccc2)(c2ccccc2)c2ccccc21	12	12	-25	47	3.1	3928	.
CC1CCCN(Cc2cnc(Cl)s2)C1 (stereo not drawn)	.	.	-19	6	1.1	2566	6
O=C1OC(/C=C/c2ccccc2)=NC/1=C/C=C/c1ccccc1	4	3	-17	-2	-3.6	8608	-12
CC1C(=O)OC2C1CCC1(C)CCC(=O)C(C)C21 (stereo not drawn)	-2	-3	-19	2	-6.2	3612	1
CCOc1ccc(C(=O)CCC(=O)Nc2cc(C)ccn2)cc1	6	2	-55	14	2.5	.	-8
CCOCCCn1c(SCC(=O)/C(C#N)=C(\C)N)nc2ccccc2c1=O	3	1	-39	1	6.5	10477	-1
COc1ccccc1C(=O)NC1CC2CCC(C1)N2Cc1ccccc1 (stereo not drawn)	-6	1	-8	11	4.1	3430	4
O=C(COC(=O)c1cc(S(=O)(=O)NCc2ccccc2)ccc1O)NCc1ccccc1	6	1	-4	22	-4.5	2938	1
CCOc1ccc(-c2nc(S(=O)(=O)c3ccccc3)c(N3CCOCC3)o2)cc1	7	23	-21	2	6.5	4406	2
O=C(Cn1cnc2c(nnn2Cc2ccccc2)c1=O)N1CCN(c2ccccc2)CC1	1	10	-14	-3	-11	5356	-6

Continuation.
compound	Mtb hypoxia inh	Mtb hypoxia inh growth	PrP 5UTR inh	ugtP null kill	RN4220 kill	Bead autofluor	BJeLR viability
CC(C(=O)N(C)C1CCS(=O)(=O)C1)N1C(=O)/C(=C/c2cccs2)SC1=S (stereo not drawn)	13	1	-15	3	3.5	5212	-4
Cc1ccc(S(=O)(=O)N2CCN(C(=O)COC(=O)c3c(C)noc3C)CC2)c(C)c1	-13	-9	-10	-4	-5.2	3461	8
CCOc1ccc(NC(=S)NC(=O)c2c(Br)cnn2C)c([N+](=O)[O-])c1	3	10	-12	-21	2.0	2627	9
COc1ccc(OCC(=O)Nc2cccc(-c3nc4ccccc4[nH]3)c2)cc1	4	4	-49	-15	15	24148*	11
CC(C)c1ccc(N(CC(=O)NCc2cccnc2)S(=O)(=O)c2ccccc2)cc1	10	9	-9	2	-0.2	3464	-8
Cc1cccc(N=C2NC(=O)/C(=C/c3cn(C)c4ccccc34)S2)c1	-2	1	4	3	1.5	2020	-2
CSc1nc(N2CCN(c3ccccc3)CC2)cc(N2CCN(c3ccccc3)CC2)n1	4	12	-22	-3	2.1	3721	-7
COc1ccc(-c2nc3ccccn3c2Cl)cc1	17	22	-28	2	11	3253	14
O=C(c1ccc(CS(=O)c2ccccc2Cl)o1)N1CCCCCC1 (stereo not drawn)	4	5	-6	14	3.3	6173	-1
CN(C)/N=C/c1ccc([N+](=O)[O-])cc1[N+](=O)[O-]	.	.	-6	.	.	5037	-4

(cont.)
compound	Mtb hypoxia inh	Mtb hypoxia inh growth	PrP 5UTR inh	ugtP null kill	RN4220 kill	Bead autofluor	BJeLR viability
COc1cccc(CN2CCCC(N3CCc4ccccc4C3)C2)c1O (stereo not drawn)	-3	-3	-7	6	2.0	3177	6
COc1ccccc1N(C)C(=O)c1cc(S(=O)(=O)N2CCCC2)cn1C	3	6	-4	-2	8.7	6000	1
O=C(CC1S/C(=N/N=C/c2c[nH]c3ccccc23)NC1=O)Nc1ccccc1 (stereo not drawn)	.	.	-41	.	.	2170	-6
Cc1ccc(S(=O)(=O)N(C)C)cc1NC(=O)[C@H](Cc1ccccc1)N1C(=O)c2ccccc2C1=O	5	6	-21	11	6.7	2259	7
CC(C)c1ccc(NC(=O)COc2nncc3ccccc23)cc1	5	5	-1	0	0.8	2056	-3
CN(c1ccccc1C(=O)Nc1ccc(S(=O)(=O)N2CCOCC2)cc1)S(C)(=O)=O	-6	2	-10	3	0.0	1947	-4
